PV pol inh: inhibitors of poliovirus RNA polymerase binding and polymerization | P03300 | poliovirus polymerase elongation, fluorescence polarization; active compounds read low | hit rate 0.66% among 150,000 | % elongation, % (compound at 16.7 µg/mL); in the data active = % elongation below about 90%; also: some results filed as inactive read as strong as hits
Target sequence (P03300 1749-2209 limits assumed): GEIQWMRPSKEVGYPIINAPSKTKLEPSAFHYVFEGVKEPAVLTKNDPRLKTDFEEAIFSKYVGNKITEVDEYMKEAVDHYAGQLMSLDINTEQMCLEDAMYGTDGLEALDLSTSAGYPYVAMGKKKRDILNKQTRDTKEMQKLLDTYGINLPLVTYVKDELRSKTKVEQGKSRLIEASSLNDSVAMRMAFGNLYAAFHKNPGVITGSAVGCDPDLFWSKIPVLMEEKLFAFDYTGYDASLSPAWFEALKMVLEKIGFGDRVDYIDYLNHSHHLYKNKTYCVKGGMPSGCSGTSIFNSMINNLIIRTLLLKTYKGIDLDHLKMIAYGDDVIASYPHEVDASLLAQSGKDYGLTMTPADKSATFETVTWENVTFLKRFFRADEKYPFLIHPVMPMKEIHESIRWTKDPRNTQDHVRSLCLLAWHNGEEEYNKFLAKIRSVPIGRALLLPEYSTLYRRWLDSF
PV pol inh intensity: also measured in PV pol inh; calls as there; % elongation; measured here: total intensity read-out; formula for this scale not given here;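 total fluorescence in place of polarization; lower means less elongation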
An asterisk follows results filed as active. Only part of the results is shown, so the mix of outcomes need not match the whole.

SMILES	PV pol inh	PV pol inh intensity
CCOc1ccc(-c2c(C)nn3c(C)c(C(=O)Nc4cc(C)cc(C)c4)cnc23)cc1OCC	100	94
COc1cccc(NC(=O)C2CCC(CNS(=O)(=O)c3ccc4c(c3)CCCC(=O)N4)CC2)c1 (stereo unspecified)	111	111
O=C(NCc1ccc(Cl)cc1)C1CCN(S(=O)(=O)c2cccc3nonc23)CC1	108	113
CCCN1CCN(c2ncnc3sc(C(=O)Nc4c(C)cc(C)cc4C)c(C)c23)CC1	105	104
CC(=O)c1ccc(NC(=O)C2CCCN(S(=O)(=O)c3ccc4c(c3)CCCN4C(C)=O)C2)cc1 (stereo unspecified)	108	108
Cc1cc(C)c2c(CC(=O)N(Cc3ccccc3)C3CCS(=O)(=O)C3)coc2c1 (stereo unspecified)	119	115
COc1cccc(CN2CCc3nc(Nc4ccc5c(c4)OCCO5)ncc3C2)c1OC	106	107
CCN(CC)C(=O)c1sc2c(c1C)c(=O)n(-c1ccccc1)c(=O)n2Cc1c(C)cc(C)cc1C	106	113
Cc1cc(C)cc(N(CC(=O)Nc2c(C)cc(C)cc2C)S(=O)(=O)c2c(C)nn(C)c2C)c1	109	112
COc1ccc(NC(=O)CSc2nncn3c2cc2oc(C)cc23)cc1OC	107	100
CN(C)c1ccc(CNC(=O)CN2C(=O)CSc3ccc(S(=O)(=O)N4CCCC4)cc32)cc1	109	109
COc1ccc(Cn2c(CNS(=O)(=O)c3ccc(C)c(C)c3)nc3cccnc32)cc1	107	113
Cc1ccc(CNC(=O)CCc2c(C)nc3nc(CNC(=O)OC(C)(C)C)nn3c2C)cc1	104	106
COc1ccc(C)cc1NC(=O)C1CCN(S(=O)(=O)c2ccc3[nH]c(=O)oc3c2)CC1	103	104
Cc1ccc(C)c(Nc2nn3c(=O)c4ccc(C(=O)NCCc5ccccc5)cc4nc3s2)c1	102	101
Cc1ccc(NC(=O)CSc2nc(=O)n(Cc3ccncc3)c3c2CCC3)cc1Cl	113	109
CCOc1ccc(C(=O)Nc2ccc3c(c2)N(C(C)=O)CCC3)cc1OCC	108	109
CCc1cccc(C)c1NC(=O)CCCn1c(=O)c2cccn2c2cccnc21	112	110
Cc1cc(C(=O)N2CCN(c3cccc(Cl)c3)CC2)c2c(C)nn(-c3ccccc3Cl)c2n1	113	113
Cc1cc(S(=O)(=O)Nc2ccc(C(=O)O)cc2)c(C)c(S(=O)(=O)c2ccc(Cl)cc2)c1	97	99
CCC(C(=O)Nc1cc(C)ccc1C)n1c(=O)c(C(F)(F)F)nc2ccccc21 (stereo unspecified)	101	106
Cc1ccc(CNC(=O)CCn2cnc3ccccc3c2=O)cc1	111	111
CCc1c(C)nc2nncn2c1NCc1ccc(Cl)cc1	110	107
Cn1c2ccccc2c2c(C(=O)N3CCN(c4cccc(Cl)c4)CC3)cn(C3CCCCC3)c(=O)c21	115	121
CC(=O)N1CCCc2ccc(NC(=O)c3ccc(C(F)(F)F)cc3)cc21	102	98

No new results follow: four of the compounds above.
SMILES	PV pol inh	PV pol inh intensity
CCOc1ccc(-c2c(C)nn3c(C)c(C(=O)Nc4cc(C)cc(C)c4)cnc23)cc1OCC	100	94
COc1cccc(NC(=O)C2CCC(CNS(=O)(=O)c3ccc4c(c3)CCCC(=O)N4)CC2)c1 (stereo unspecified)	111	111
O=C(NCc1ccc(Cl)cc1)C1CCN(S(=O)(=O)c2cccc3nonc23)CC1	108	113
CCCN1CCN(c2ncnc3sc(C(=O)Nc4c(C)cc(C)cc4C)c(C)c23)CC1	105	104

Three structures out of the list, arranged by molecular weight, low to high.
SMILES	PV pol inh	PV pol inh intensity
COc1ccc(NC(=O)CSc2nncn3c2cc2oc(C)cc23)cc1OC	107	100
O=C(NCc1ccc(Cl)cc1)C1CCN(S(=O)(=O)c2cccc3nonc23)CC1	108	113
CC(=O)c1ccc(NC(=O)C2CCCN(S(=O)(=O)c3ccc4c(c3)CCCN4C(C)=O)C2)cc1 (stereo unspecified)	108	108

Later entries
SMILES	PV pol inh	PV pol inh intensity
CC(=O)c1ccc(N2C(=O)N(Cc3ccccc3C#N)c3ccccc3S2(=O)=O)cc1	110	115
COc1cccc2cc(C(=O)N3CCN(c4cc(C)ccc4C)CC3)c(=O)oc12	105	111
Cc1cc(C)cc(NC(=O)Cn2nnc(-c3nc(-c4ccncc4)no3)c2N)c1	110	114
CC(=O)c1ccc(NC(=O)Cn2c(-n3nc(C)cc3C)nc(C)c(C)c2=O)cc1	107	117
O=C(C1CC1)N1CCc2cc(Br)cc(S(=O)(=O)Nc3ccc(F)c(F)c3)c21	107	106
COc1cccc(-c2nn3c(=O)cc(CN4CCN(S(=O)(=O)c5ccc(C)cc5)CC4)nc3s2)c1	116	112
CCC12CN3CC(CC)(CN(C1)C3c1c[nH]c3ccccc13)C2=O (stereo unspecified)	101	100
Cc1ccc(OCC(=O)Nc2ccc3nc(Nc4cccc(Cl)c4)cc(C)c3c2)cc1	100	107
O=C(Nc1ccccc1)N1CCN(C(=O)c2nsc3ccccc23)CC1	103	104
CCOC(=O)C1CCN(c2ncnc3c2c(-c2ccccc2)cn3-c2ccc(Cl)cc2)CC1	105	110
CC(C)CCNC(=O)c1ccc2c(c1)nc1n2CCCCC1	113	113
COC(=O)C(C)n1nnc2sc(-c3ccccc3)cc2c1=O (stereo unspecified)	126	129
COc1ccc(Cl)cc1NC(=O)c1c(NCc2ccc(C)o2)sc2c1CCCCC2	124	132
Cc1ccc(Cl)cc1NC(=O)Cn1c(=O)cc(C)c2c(C)nn(C)c21	113	102
Cc1csc2nc(COc3ccccc3NC(=O)c3ccccc3Cl)cc(=O)n12	103	103
O=C(CCCn1c(=O)c2cccn2c2ccc(F)cc21)NCc1ccc(Cl)cc1	109	101
Cc1nc(N2CCOCC2)c2c(C(=O)N3CCN(c4cccc(C)c4C)CC3)c(C)oc2n1	109	97
CCOc1ccc(NC(=O)CN(Cc2ccccc2)S(=O)(=O)c2ccc(Cl)cc2)cc1	101	104
CCN1CCN(c2cc(C)c3cc(NC(=O)c4cccc(C(F)(F)F)c4)ccc3n2)CC1	109	106
O=C(NCCc1ccccc1)c1ccc2c(c1)N(Cc1ccc(F)cc1)C(=O)CS2	104	107
COc1cccc(C(=O)NC(=NCCc2c[nH]c3ccc(OC)cc23)Nc2nc(C)cc(C)n2)c1	102	103
COC(=O)c1ccccc1NC(=O)c1cc2nc(-c3ccccc3)cc(-c3ccccc3)n2n1	104	101
Cc1ccc(NC(=O)Cn2c(=O)n(CCc3ccccc3)c(=O)c3c4c(sc32)CCCC4)c(C)c1	109	114
Cc1cc(C)cc(-n2ccnc2SCC(=O)Nc2nnc(C)s2)c1	108	113
Cc1cccc(C)c1-n1ncc(C(=O)O)c1C1CCN(C(=O)OC(C)(C)C)CC1	108	109

3 records drawn at random from those above, as already listed:
SMILES	PV pol inh	PV pol inh intensity
O=C(Nc1ccccc1)N1CCN(C(=O)c2nsc3ccccc23)CC1	103	104
Cc1ccc(NC(=O)CSc2nc(=O)n(Cc3ccncc3)c3c2CCC3)cc1Cl	113	109
Cc1csc2nc(COc3ccccc3NC(=O)c3ccccc3Cl)cc(=O)n12	103	103

Additional records.
SMILES	PV pol inh	PV pol inh intensity
O=c1oc2c3c(ccc2c2ccccc12)OCN(Cc1cccc(Cl)c1)C3	85*	87*
Cc1ccc2[nH]c3c(=O)n(CC(=O)Nc4ccc(Br)cc4C)ncc3c2c1	105	103
CSc1ccc(C2c3c(oc4cc(C)cc(C)c4c3=O)C(=O)N2CCO)cc1 (stereo unspecified)	111	111
CCOc1ccc(N2CC(NC(=O)c3ccc(S(=O)(=O)N4CCOCC4)cc3)CC2=O)cc1 (stereo unspecified)	112	107
Cc1ccc(C2Nc3ccccc3-n3c(-c4ccccc4)c4c(=O)n(C)c(=O)n(C)c4c32)o1 (stereo unspecified)	131	138
Cc1[nH]c2ccccc2c1C1(O)C(=O)N(Cc2ccccc2)c2ccc(Cl)cc21 (stereo unspecified)	108	112
COc1ccc2oc(=O)c(C(=O)NCCc3c(C)[nH]c4c(C)cccc34)cc2c1	102	103
CCC(C)NC(=O)Cn1c(=O)n(-c2ccc(Cl)c(Cl)c2)c(=O)c2c(C)c(C(=O)N(CC)CC)sc21 (stereo unspecified)	109	112
COc1cccc(CNC(=O)C2CCCN(c3nnc(-n4c(C)ccc4C)s3)C2)c1OC (stereo unspecified)	103	106
COc1ccccc1C(=O)Nc1c(C(=O)N(CCN(C)C)Cc2ccco2)oc2ccccc12	101	100
CNC(=O)c1c(NC(=O)c2ccc(S(=O)(=O)N3CCC(C)CC3)cc2)sc2c1CCC2	109	95
Cc1ccc(C)c(-c2ccc(=O)n(C(C)C(=O)Nc3ccccc3C(F)(F)F)n2)c1 (stereo unspecified)	105	107
Cc1cccc(-n2ncc3c(N4CCCC(C)C4)ncnc32)c1 (stereo unspecified)	108	112
Cn1c(=O)c2c(-c3ccc(Br)cc3)n(Cc3ccc(F)cc3)cc2n(C)c1=O	99	96
COc1ccccc1-c1noc(-c2ccc(N3CCN(C)CC3)c([N+](=O)[O-])c2)n1	106	103
COc1cccc(C(=O)NC2(C(F)(F)F)C(=O)Nc3c2c(=O)[nH]c(=O)n3-c2ccc(C)cc2)c1 (stereo unspecified)	105	108
CCOC(=O)c1c(NC(C)=O)c2c3c(sc2n1Cc1cc(C)ccc1C)CCCC3	107	114
CCCOc1cccc(C(=O)Nc2cc(-c3nc4ccccc4[nH]3)ccc2C)c1	104	109
Cn1c(=O)oc2cc(S(=O)(=O)NC(Cc3ccccc3)C(=O)NCc3ccc(F)cc3)ccc21 (stereo unspecified)	104	106
Cc1ccc(CNc2ncccc2-c2nc(-c3ccc(Cl)cc3)no2)cc1	105	108
Cc1ccc2c(c1)CC(C)N2S(=O)(=O)c1nnc(NC(=O)c2ccccc2F)s1 (stereo unspecified)	107	108
COC(=O)c1ccc(-n2c(CCC(=O)O)ccc2-c2ccc(C)cc2)cc1	105	108
COc1ccc(C(=O)c2c(N)c(-c3nc(-c4ccc(OC)cc4)cs3)c3ccccn23)cc1	110	110
COc1cc2c(C(=O)Nc3ccc(C)cc3Br)cn(C)c(=O)c2cc1OC	102	104
Cc1ccc(C(=O)Nc2ccc(-c3cn4cccnc4n3)cc2)cc1C	108	108

Copied from the list:
Entry for Cn1c2ccccc2c2c(C(=O)N3CCN(c4cccc(Cl)c4)CC3)cn(C3CCCCC3)c(=O)c21 under PV pol inh: 115
Entry for CCN(CC)C(=O)c1sc2c(c1C)c(=O)n(-c1ccccc1)c(=O)n2Cc1c(C)cc(C)cc1C under PV pol inh intensity: 113
Entry for COC(=O)C(C)n1nnc2sc(-c3ccccc3)cc2c1=O (stereo unspecified) under PV pol inh: 126
Entry for COc1ccc2oc(=O)c(C(=O)NCCc3c(C)[nH]c4c(C)cccc34)cc2c1 under PV pol inh: 102
Entry for CCCOc1cccc(C(=O)Nc2cc(-c3nc4ccccc4[nH]3)ccc2C)c1 under PV pol inh intensity: 109

Continuation:
SMILES	PV pol inh	PV pol inh intensity
CC(NC(=O)c1cc2sccc2n1Cc1ccc(F)cc1)c1ccccc1 (stereo unspecified)	106	110
CCOc1ccc(CNC(=O)CN2C(=O)CSc3c2c(C)nn3-c2ccccc2)cc1	112	106
Cc1ccc(C(=O)Nc2nnc(S(=O)(=O)N3CCCc4ccccc43)s2)cc1	106	118
COc1ccc2oc(-c3ccc(C)c(NC(=O)c4ccc5c(c4)OCCO5)c3)nc2c1	106	113
COc1ccc(-c2nc(CNS(=O)(=O)c3ccccc3)cs2)cc1	105	109
CCc1nnc(SC(CC)C(=O)NCCOC)c2cc3occc3n12 (stereo unspecified)	103	95
Cc1cccc(-c2nn3c(=O)cc(CN4CCN(C(=O)COc5ccc(Cl)cc5)CC4)nc3s2)c1	112	104
CC(C)(C)C1CCc2c(sc(NC(=O)Cn3nnc(-c4ccccc4Cl)n3)c2C#N)C1 (stereo unspecified)	101	104
Cc1nc2nc(SCC(=O)N(Cc3ccccc3)C(C)C)nn2c(C)c1Cc1ccccc1Cl	107	109
Cc1ccc2onc(CC(=O)Nc3ccc(C(C)C)cc3)c2c1	110	109
CCOC(=O)Cn1c(=O)n(C2CCCCC2)c2nc(-c3cccc(OC)c3)nc(C(N)=O)c21	111	112
COc1ccc(-c2nc(SCC(=O)N3CCCCC3C)n[nH]2)cc1 (stereo unspecified)	108	106
COc1ccc(N2CC(NC(=O)C(=O)c3c[nH]c4ccccc34)CC2=O)cc1 (stereo unspecified)	112	110
Cc1ccccc1-c1noc(-c2ccccc2OCC(=O)Nc2cccc([N+](=O)[O-])c2)n1	116	116
Cc1ccccc1CSc1ccc(-c2cccs2)nn1	102	98
CC(=O)N1CCc2cc(S(=O)(=O)CCC(=O)NCc3ccc(Cl)cc3)ccc21	103	112
Clc1ccc(N2CCN(c3ncnc4c3cnn4-c3ccccc3)CC2)cc1Cl	106	111
Cc1cc(C)c(NC(=O)CCN2C(=O)c3ccccc3Sc3ncccc32)c(C)c1	105	88
O=C(Nc1ccc(C(=O)OCc2cc(=O)n3nc(C4CC4)sc3n2)cc1)c1cccc(F)c1	112	110
CCOc1ccccc1NC(=O)CSc1nc2c(c(=O)[nH]1)CCC2	105	98
COc1ccc(S(=O)(=O)NCCc2sc(-c3cccc(C)c3)nc2C)cc1	101	107
O=S(=O)(NCCc1nnc2ccc(SCc3ccc(Cl)cc3Cl)nn12)c1ccccc1	109	109
CCc1ccc(CNC(=O)C2CCN(c3nnc(C)c4c(C)n(-c5ccc(C)cc5)nc34)CC2)cc1	106	104
COc1ccc(-n2c(C)nc3c(cnn3-c3ccc(C)c(C)c3)c2=O)cc1Cl	109	103
CCc1ccc(S(=O)(=O)c2cn(Cc3ccccc3)c3cc(N4CCCC4)c(F)cc3c2=O)cc1	109	112

Source: PubChem (ICCB-Longwood Screening Facility, Harvard Medical School)
